# T cruzi repl: inhibitors of intracellular T. cruzi growth, primary screen, luminescence, NIH3T3 host cells; inhibition, % (no concentration beside the values); 1.4% of 300,000 active; T. cruzi beta-gal in NIH3T3, 90 h;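 active = mean inhibition across valid replicates above about 55%, limit read from the data; inconclusive = mean below that limit but half or more replicates reach it; inactive = mean below it, under half of replicates reach it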;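 note: signal also drops with host cell toxicity which is not excluded here; 0% = plate median of DMSO wells and 100% = zero luminescence signal; higher percent means less beta-gal luminescence so fewer parasites; stock transfer was 50 nL into about 50 µL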
# Calb FLC: C. albicans growth inhibition with fluconazole, primary screen, CaCi-2 strain, Alamar Blue fluorescence | 0.57% of 300,000 active | growth inhibition, % (test concentration not listed) | C. albicans CaCi-2 (fluconazole-resistant clinical isolate) + fluconazole, 48 h;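 active = most replicates above 75%; inconclusive = exactly half above 75%; inactive = most below 75%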;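 note: all wells also contain fluconazole at 8 µg/ml as a sub-toxic cotreatment; 0% = median of DMSO wells and 100% = median of geldanamycin control wells; wells of about 8 µL received 7.5 nL stock; the first replicate is given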
# ALR H2O2 inh: inhibitors of human ALR sulfhydryl oxidase, primary screen, biochemical, H2O2 detection, HRP-luminol luminescence, single point. purified ALR, DTT oxidation. inhibition, % (concentration not given with the values). 3.8% of 290,000 active. AID 485317, 2010;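 active = mean and each replicate at 75% or more; inconclusive = only one of the two met; inactive = neither met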;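 note: stock transfer was 7.5 nL into about 7.5 µL; 0% = neutral wells and 100% = wells with inactivated enzyme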
# Target sequence (P55789 whole entry, looked up): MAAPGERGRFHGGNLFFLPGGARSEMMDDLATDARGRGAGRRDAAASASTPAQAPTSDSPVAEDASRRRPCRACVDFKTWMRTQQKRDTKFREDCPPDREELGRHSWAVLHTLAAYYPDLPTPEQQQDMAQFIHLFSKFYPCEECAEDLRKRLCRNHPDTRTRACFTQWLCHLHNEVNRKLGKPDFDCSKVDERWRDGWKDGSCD
# FGF22 binding: binders of human FGF22 protein, primary screen, FGF22 synaptogenesis inhibitor project, biophysical, thermal shift, single point; recombinant FGF22 thermal shift, SYPRO orange fluorescence; percent of sucrose octasulfate shift, DMSO zero; calls only at 9.99 µM; 1.5% of 340,000 active; AID 651658, 2012;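 active = melting point raised past a set limit in the mean and every replicate; inconclusive = no clear call; three in four hits are not shown here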
# Target sequence (Q9HCT0 whole entry, looked up): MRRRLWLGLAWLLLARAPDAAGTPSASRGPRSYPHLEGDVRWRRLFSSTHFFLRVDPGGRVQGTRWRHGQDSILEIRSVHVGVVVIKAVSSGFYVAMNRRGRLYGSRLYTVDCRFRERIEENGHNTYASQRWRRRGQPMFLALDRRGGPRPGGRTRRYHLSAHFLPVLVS
# Ecoli rRNA inh: reduced GFP signal of wild-type E. coli, primary screen, bacterial rRNA inhibitor project, GFP/RFP fluorescence, OD600, single point; E. coli WT GFP vs humanized-ribosome RFP mutants, 24 h; stronger effect = lower value; DMSO median 0, no signal -100; GFP signal change (wild-type ribosome), % (concentration not given with the values); 1.6% of 350,000 active; AID 720706, 2013;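 active = significant combined selectivity score with lowered wild-type GFP, culture density cut under 30%, mutant RFP and density less affected; inactive = any of these conditions unmet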; note: one replicate is shown; some compounds called inactive have numbers as strong as hits
# RanGTP-Impb inh: inhibitors of RanGTP-importin-beta interaction, primary screen, biochemical, FRET, CFP-Ran, YFP-importin-beta, homogeneous | AID 2216, 2009 | cell-free CFP-Ran/YFP-importin-beta FRET ratio | inhibition, % (test concentration not listed) | 1.1% of 300,000 active;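 active = most replicates above 15%; inconclusive = exactly half above 15%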;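 note: 0% = DMSO wells and 100% = Ran loaded with GDP instead of GTP; wells of about 40 µL received 100 nL stock; the first replicate is given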
# MLL AF4-AF9 inh: inhibitors of AF4 peptide binding to AF9, primary screen, biochemical, AlphaScreen, biotin-AF4 peptide, FLAG-AF9, single point | Protein AF-9 (Homo sapiens), P42568 | inhibition, % at 10 µM | 0.47% of 350,000 active;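 active = every replicate reaching a set inhibition limit, whatever the replicate mean, cut at about 25% in these data; inconclusive = mean inhibition reaches that limit but some replicates miss it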;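 note: 0% = plate neutral control median and 100% = total signal loss; the record names both 10 and 1 µM as test concentration; the first replicate is given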
# Target sequence (P42568 whole entry, looked up): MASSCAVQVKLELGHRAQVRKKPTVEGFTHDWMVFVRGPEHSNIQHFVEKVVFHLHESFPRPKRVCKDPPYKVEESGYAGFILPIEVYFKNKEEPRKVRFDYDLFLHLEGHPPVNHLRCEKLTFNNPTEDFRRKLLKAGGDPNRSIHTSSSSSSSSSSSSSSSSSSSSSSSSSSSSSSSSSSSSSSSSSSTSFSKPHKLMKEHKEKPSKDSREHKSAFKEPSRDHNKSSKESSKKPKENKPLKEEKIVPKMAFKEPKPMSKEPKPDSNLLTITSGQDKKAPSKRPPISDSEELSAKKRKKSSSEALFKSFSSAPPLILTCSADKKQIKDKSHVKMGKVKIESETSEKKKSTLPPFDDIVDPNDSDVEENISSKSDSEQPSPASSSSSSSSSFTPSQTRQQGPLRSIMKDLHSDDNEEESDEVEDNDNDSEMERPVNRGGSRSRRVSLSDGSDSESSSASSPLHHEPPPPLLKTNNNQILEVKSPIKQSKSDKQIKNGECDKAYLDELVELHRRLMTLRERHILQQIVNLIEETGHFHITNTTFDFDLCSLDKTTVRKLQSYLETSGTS
# Beta apoptosis: inhibitors of cytokine-induced beta cell apoptosis, primary screen, luminescence; INS-1E cytokine-induced death, ATP luminescence, 48 h; percent of positive-control rescue, neutral wells zero; protection from apoptosis, % (test concentration not listed); 0.8% of 300,000 active; AID 435005, 2010;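 active = all replicates at 75% or more, or half of them and the mean; inconclusive = half reach 75% but not the mean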;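 note: 0% = cytokine-treated negative control wells and 100% = positive control rescue; higher means more ATP so stronger rescue from cytokine killing; wells of about 40 µL received 100 nL stock; the first replicate is given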
# Ecoli rRNA inh OD600: second read-out of Ecoli rRNA inh, no call of its own (marks repeat the call); OD600 change, %; measured here: OD600 growth;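 optical density of the mix in the first replicate; 0 = DMSO median and -100 = no signal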
# Ecoli rRNA inh RFP: recorded beside Ecoli rRNA inh, whose call it bears; RFP signal change, %; measured here: RFP humanized mutant strains;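 first replicate; 0 = DMSO median and -100 = no signal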
# * = called active by the depositor; i = inactive; ? = inconclusive; / = not tested or not shown. An excerpt; rates above refer to the full screens.
# Every second line gives: T cruzi repl, Calb FLC, ALR H2O2 inh, FGF22 binding, Ecoli rRNA inh, Ecoli rRNA inh OD600, Ecoli rRNA inh RFP, RanGTP-Impb inh, MLL AF4-AF9 inh, Beta apoptosis
Cc1c(OCC(=O)NC2CC(C)(C)NC(C)(C)C2)ccc2c3c(c(=O)oc12)CCC3
    -9, -1, -1, i, 6, 0, 1.8, 1.8, -2.0, 6
O=S(=O)(NC(=NCCc1ccc(Cl)cc1)c1ccccc1Cl)c1cccs1
    29, 40, -3, /, -31, -54, 0.2, 2.2, -0.5, /
Nc1ccccc1SCc1c(Cl)cccc1Cl
    5, 2, 40, i, -49, -40, -10, 5.0, 0.1, /
Cc1ccc(NC(=S)NCCc2c[nH]c3ccccc23)cc1
    -24, 0, 2, /, /, /, /, 1.5, /, -1
Cn1cccc1C(=O)OCC(=O)NC(=O)c1ccc(Cl)cc1
    /, /, -16, i, 14, 16, 3.9, /, 4.2, -10
CC1(C)SC2c3ccccc3C(=O)N2[C@@H]1C(=O)NCCCN1CCOCC1 (stereo partly drawn)
    -6, -6, -6, /, /, /, /, ?, /, -2
O=[N+]([O-])c1ccc(N2CCN(CCO)CC2)cc1Sc1nc2ccccc2[nH]1
    18, 14, -1, /, /, /, /, -3.2, /, -10
Oc1ccccc1O
    /, /, 2, i, /, /, /, /, 12, 3
CN(C)c1cc[n+](CC(=O)Nc2c(Cl)cc(Cl)cc2Cl)cc1
    -15, -3, -19, i, 13, 6, 2.8, -5.2, -0.7, /
Cc1ccc(OCC(=O)Nc2ccccc2C(=O)NC2CC2)cc1C
    3, 5, -1, i, 2, 7, 1.9, -3.8, 1.7, -3
O=C(COC(=O)CNS(=O)(=O)c1ccc2ccccc2c1)Nc1ccccc1Sc1ccccc1
    3, -4, 3, i, -6, -3, 0.6, -2.3, -1.1, -11
CC(=O)c1ccc(NC(=O)Nc2ccc3c(c2)N(C)C(=O)CS3)cc1
    -3, -10, 21, /, /, /, /, -2.0, /, -6
CCc1nn2c(=O)c(S(=O)(=O)Nc3ccccc3)c(C)nc2s1
    7, -4, 5, i, 7, 9, 0.4, 1.4, -7.2, -2
CCOC(=O)c1c(NC(=O)c2ccccc2N(C)S(=O)(=O)c2ccccc2)sc2c1CCCC2
    26, -4, /, i, 1, 23, 0.1, 1.1, 1.2, 25
CCOCCc1nn2c(=O)cc(CSCC(=O)Nc3ccc(OC)cc3)nc2s1
    -15, 23, -3, i, 14, 10, -0.4, -0.1, -1.7, -10
CSc1ccc(/C=C(\C(=O)O)c2ccc(S(=O)(=O)N3CCCC3)s2)cc1
    /, /, 6, i, -20, -22, -4.5, /, -6.7, -10
O=C(CSc1ccc(Br)cc1)Nc1ccccc1Oc1ccccc1
    -2, 26, /, /, /, /, /, 2.5, /, -7
Cc1ccc(NC(=O)COC(=O)C(NS(=O)(=O)c2ccc(Cl)cc2)C(C)O)c(Br)c1 (stereo not drawn)
    -3, 13, -7, /, /, /, /, 4.9, /, -16
CCC(C)CCN1CCN=C1N(C)C (stereo not drawn)
    /, /, 2, i, 3, 9, 7.1, /, -15, 3
O=C1CSC(=Nc2ccc(F)cc2)N1
    -3, -10, 11, i, 7, 3, -5.6, -4.6, 0.1, 1
O=C(CS(=O)c1ccc(Br)cc1)N1CCOCC1 (stereo not drawn)
    -6, -3, -3, i, 20, 13, 1.9, 0.8, -2.8, -4
COc1ccc(CCNC(=O)Cn2cnc3ccccc3c2=O)cc1OC
    -6, -1, -5, /, /, /, /, 1.7, /, -12
CC(C)C(NC(=O)c1ccccc1)c1nnc(SCC(=O)NC2CCCC2)n1C (stereo not drawn)
    3, 4, -5, i, 7, 3, 1.7, 1.1, -1.9, 1
CCCC(c1nnnn1Cc1cccs1)N1CCN(C2CCCC2)CC1 (stereo not drawn)
    -10, -2, 5, /, /, /, /, -1.6, /, -3
CNC(=S)NNC(=O)c1cn(C)nc1C
    -4, -9, 10, i, 17, 11, -2.0, -6.4, -1.8, /
CC(=O)CC(=O)Nc1ccn(-c2ccccc2)n1
    -17, 1, 82*, /, /, /, /, 3.5, /, 0
CCC1CCCCN1S(=O)(=O)c1ccc2[nH]c(=O)ccc2c1 (stereo not drawn)
    -3, -4, -9, i, 0, 2, -0.6, 1.5, 7.8, -2
CC(=O)N1CCc2cc(S(=O)(=O)NCC(=O)NCc3ccc(Cl)cc3)ccc21
    3, 4, -2, i, 12, 6, 2.9, -1.0, 1.5, -5
O=[N+]([O-])c1ccc(O)c(N=Cc2sc3ccccc3c2O)c1
    -10, -10, 13, i, 1, -2, 10, 38*, -16, 29
COc1ccc(Cl)cc1N1C(=O)C2CCCN2C1c1ccc(F)cc1 (stereo not drawn)
    7, -2, -18, i, 6, 8, -0.9, 1.8, 2.4, -4
COC(=O)c1cc(S(=O)(=O)Nc2ccsc2C(=O)OC)oc1C
    -12, 2, -16, i, -14, -8, -0.6, -1.0, /, -4
O=C(CN1CCOCC1)Nc1cc(C(F)(F)F)ccc1Cl
    -17, -3, -2, i, -2, -3, -2.3, -2.6, -0.7, -4
CCN=C1S/C(=C\c2cn(CC(=O)NCCOC)c3ccccc23)C(=O)N1CC
    -7, 3, /, i, 6, 19, -1.5, 1.4, -0.4, 5
Nc1cc(OC(=O)c2cccs2)nn1S(=O)(=O)c1ccc(F)cc1
    -4, 0, 12, /, /, /, /, -2.5, /, -3
CC(Cc1nnc(SCC(=O)O)n1N)c1ccccc1 (stereo not drawn)
    -8, -1, -2, i, 12, 15, -0.6, 2.3, -1.8, -8
CSc1nnc2ccc(-c3ccccn3)nn12
    -11, 0, 1, i, 5, 6, -1.1, -2.6, -13, -2
Cc1nc2cc(-c3cccs3)nn2c(NCC(C)(C)CN(C)C)c1C
    49, 4, /, i, 8, 3, 1.6, ?, 0.6, 9
COc1ccc(Cn2c(=S)[nH]c3ccsc3c2=O)cc1
    0, 23, -6, /, /, /, /, -0.8, /, 0
COc1ccc(-n2nc(C(=O)N3CCCCC3)c(C)c(C#N)c2=O)cc1
    -8, -7, -19, i, -2, -6, -2.0, -4.2, 2.0, -7
NC(=S)N/N=C/c1ccc(-n2nncc2-c2ccc(Cl)cc2)cc1
    57*, 5, -8, /, /, /, /, 2.0, /, /
O=C1CC(c2ccco2)CC(O)=C1C=NCCN1CCNCC1 (stereo not drawn)
    -7, -1, -47, /, /, /, /, -2.8, /, -5
CCOc1ccc(NC(=O)CN(C)C(=O)Cc2n[nH]c(=O)c3ccccc23)cc1OCC
    /, /, /, i, 7, 8, -1.7, /, -9.9, 0
COc1ccc(/C=C/C(=O)NC2CCCCCC2)cc1S(=O)(=O)N1CCOCC1
    -3, -5, 12, i, 1, 14, -2.5, -0.8, 2.6, 0
COc1ccc(-c2csc(NCCc3nc4cc(Cl)c(N5CCCCC5)cc4n3CCOCCO)n2)cc1
    22, 8, 22, i, -3, 6, 16, -3.8, -12, 1
Cc1ccc(CCNC(=O)c2nnn(-c3cccc(C)c3)c2N)cc1
    6, 22, -3, /, /, /, /, 0.9, /, -5
NC(=O)COC(=O)c1cc([N+](=O)[O-])ccc1NCCO
    -16, -20, -19, i, 4, 4, -0.6, 2.0, -1.6, 0
CCOC(=O)C1CCN(CCC(=O)Nc2cccc(C)c2)CC1
    24, -6, /, i, 15, 11, 1.0, -0.6, -1.8, -18
O=C(c1sc2ccccc2c1Cl)N(Cc1ccccc1Cl)C1CCS(=O)(=O)C1 (stereo not drawn)
    24, -7, -2, /, /, /, /, 6.7, /, 6
COc1ccc(-c2cc(C(=O)OCC(=O)N3CCOCC3)c3ccccc3n2)cc1
    /, /, -3, i, -21, -40, -10, /, -1.0, 2
CC(=O)Nc1ccc(S(=O)(=O)Nc2ccc(N3CCCCC3)cc2)cc1
    /, /, 99*, i, -12, -5, 0.7, /, ?, 119*

# Next section.
# Every second line gives: T cruzi repl, Calb FLC, ALR H2O2 inh, FGF22 binding, Ecoli rRNA inh, Ecoli rRNA inh OD600, Ecoli rRNA inh RFP, RanGTP-Impb inh, MLL AF4-AF9 inh, Beta apoptosis
Cc1ccccc1S(=O)(=O)Cc1ccc(C(=O)NCCc2ccccc2)o1
    6, -7, -7, i, -5, -8, 2.6, -1.5, -1.2, 5
Cc1cccc(Nc2nccc(N(C)C)c2C#N)c1
    4, -6, 5, i, 19, 10, 0.2, ?, -0.1, -2
Cc1cccc(-n2ncc3c(N)ncnc32)c1
    -2, -2, 10, /, /, /, /, ?, /, -4
CCOc1ccc(CCNC(=O)CCc2nc(-c3ccc(OC)cc3)no2)cc1OCC
    19, -2, 0, /, /, /, /, 2.4, /, -2
COc1ccc(-c2onc3ccc(C(C)=O)cc23)cc1
    -1, 28, -6, i, 6, 2, 1.0, -52, 1.6, -7
COc1ccc(CN2CCNC(=O)C2CC(=O)NC2CCC2)c(OC)c1 (stereo not drawn)
    -1, -9, -8, i, 11, 8, 3.1, -0.2, 1.0, -3
O=C(CNC(=O)c1ccc(Cl)cc1)N/N=C/C=C/c1ccccc1
    -5, -6, -1, i, 19, 19, 2.0, ?, -1.1, 4
COc1ccccc1C(=O)Nc1ccc(OCC(=O)N2CCCCC2)cc1
    /, /, 2, i, 2, 7, 0.0, /, -1.7, 2
CC1=C(C(N)=O)C(c2cccc(OCc3ccccc3)c2)n2nnnc2N1 (stereo not drawn)
    1, -1, 0, /, /, /, /, 4.2, /, -5
Cc1cc(C)nc(N(C#N)CN2C(=O)c3ccccc3C2=O)n1
    -16, 0, -4, i, 11, 0, -8.3, -2.3, -0.7, 6
COc1ccc(OCC(=O)N/N=C\c2ccco2)cc1
    -3, -7, 4, i, 9, 8, 1.3, 2.1, -0.9, -6
Clc1ccc(CCNc2nc3ccccc3s2)cc1
    -6, -48, -2, /, /, /, /, 3.4, /, -6
CCOc1ccc2nc(CN3CCN(Cc4ccsc4)C(CCO)C3)ccc2c1 (stereo not drawn)
    4, -10, 3, i, 0, -5, 2.9, -4.7, 3.6, -2
O=C(Nc1ccc(O)cc1)c1c(O)c2c([nH]c1=O)CCCC2
    17, 24, /, i, -12, -8, -2.4, -2.0, -2.2, /
COc1ccc(NC(=O)CSc2nc3ccccc3c(=O)n2CCCO)cn1
    /, /, -45, i, -1, -4, 0.2, /, -4.0, 0
O=C(CCN1C(=O)C2C3C=CC(C3)C2C1=O)N1CCN(c2ccccc2Cl)CC1 (stereo not drawn)
    20, 13, 0, /, /, /, /, 3.5, /, 0
O=C(O)c1ccc(Cl)c(N2C(=O)Nc3ccccc3N2O)c1
    -6, -10, 38, i, 9, 7, -1.4, -7.4, -3.2, -5
Cc1ccc(CNC(=O)CNS(=O)(=O)c2ccc3c(c2)C(C)(C)C(=O)N3C)cc1
    0, -2, 2, i, -2, 3, 2.5, 5.2, -6.2, 1
CCOc1ccc2c(=O)c(Oc3ccccc3)c(C)oc2c1
    8, -26, -3, /, /, /, /, 7.2, /, -2
